KCNQ2 inh = KCNQ2 potassium channel inhibitors, primary screen, cell-based, CHO-K1, FluxOR thallium flux, B-score (AID 2156); B-score at 10 µM; 20 min; active compounds read low; only compounds with negative scores are shown here; some inactives read as strong as hits; 310,000 tested, 1.1% active;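 active = fluorescence ratio B-score at most minus 3 library SDs, with starting brightness B-score within 2 library SDs, cut at about -5.5 in these data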
Target sequence (O88943 whole entry, looked up): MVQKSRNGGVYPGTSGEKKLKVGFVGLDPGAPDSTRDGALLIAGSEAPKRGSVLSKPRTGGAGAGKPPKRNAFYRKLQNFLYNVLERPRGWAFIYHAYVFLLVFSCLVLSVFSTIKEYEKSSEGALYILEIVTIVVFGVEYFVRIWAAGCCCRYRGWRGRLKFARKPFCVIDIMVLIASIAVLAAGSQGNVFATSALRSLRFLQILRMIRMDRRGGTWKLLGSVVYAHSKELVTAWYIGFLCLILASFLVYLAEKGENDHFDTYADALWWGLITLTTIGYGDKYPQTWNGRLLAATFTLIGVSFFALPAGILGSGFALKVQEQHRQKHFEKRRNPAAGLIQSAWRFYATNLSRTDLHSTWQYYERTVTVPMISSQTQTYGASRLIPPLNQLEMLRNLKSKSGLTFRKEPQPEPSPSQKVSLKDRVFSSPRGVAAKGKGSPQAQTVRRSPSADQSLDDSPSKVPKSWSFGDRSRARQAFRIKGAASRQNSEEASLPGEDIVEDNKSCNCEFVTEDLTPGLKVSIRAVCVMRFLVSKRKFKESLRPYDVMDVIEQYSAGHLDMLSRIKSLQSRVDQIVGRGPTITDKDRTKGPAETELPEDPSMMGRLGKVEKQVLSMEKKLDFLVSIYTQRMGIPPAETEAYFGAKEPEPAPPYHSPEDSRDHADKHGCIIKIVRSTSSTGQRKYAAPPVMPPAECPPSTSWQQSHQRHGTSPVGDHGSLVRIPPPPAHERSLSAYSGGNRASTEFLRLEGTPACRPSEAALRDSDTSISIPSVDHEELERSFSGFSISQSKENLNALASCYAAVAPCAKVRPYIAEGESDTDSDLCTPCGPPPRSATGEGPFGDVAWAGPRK
KCNQ2 inh baseline = second read-out of KCNQ2 inh, no call of its own (marks repeat the call); B-score; measured here: initial fluorescence intensity artifact check;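 brightness before thallium and not channel activity; 0 = typical well and far values either way flag optical interference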
* hit, by the source's call; i = inactive. This is a subset. The share of hits here may be higher or lower than overall.

A first look:
SMILES	KCNQ2 inh	KCNQ2 inh baseline
O=C(O)c1c[nH]c2ccc(S(=O)(=O)N3CCN(c4ccc(F)cc4)CC3)cc2c1=O	i	1.4
CC(C)(C)c1ccc(S(=O)(=O)NCC2CCCO2)cc1 (stereo not drawn)	i	-1.87
CC1CCN(CCNC(=O)c2ccc3c(=O)n(Cc4ccc(Cl)cc4)c(=S)[nH]c3c2)CC1	i	0.9

This part in full, from the start:
SMILES	KCNQ2 inh	KCNQ2 inh baseline
O=C(O)c1c[nH]c2ccc(S(=O)(=O)N3CCN(c4ccc(F)cc4)CC3)cc2c1=O	i	1.4
CC(C)(C)c1ccc(S(=O)(=O)NCC2CCCO2)cc1 (stereo not drawn)	i	-1.87
CC1CCN(CCNC(=O)c2ccc3c(=O)n(Cc4ccc(Cl)cc4)c(=S)[nH]c3c2)CC1	i	0.9
O=C(NCCNCCO)C1(C(F)(F)F)C/C(=C\CCO)CCCO1 (stereo not drawn)	i	1.8
O=C(Cn1c(=S)[nH]c2ccccc21)c1ccccc1	i	0.51
CN1CCN(C(=O)C2=C[C@@H](c3ccc(Br)cc3)C[C@@H](OCc3ccc(CO)cc3)O2)CC1	i	0.22
CCN(C(=O)COC(=O)c1cc2ccccc2cc1O)C1CCS(=O)(=O)C1 (stereo not drawn)	i	-1.17
O=S(=O)(Cc1nnnn1-c1ccccc1)c1ccc(Cl)cc1	i	0.2
CSc1nc(C=Nc2ccccc2Cl)c(O)n1Cc1cccc(Cl)c1	i	0.23
O=C(C1CCOCC1)N1CCCC(N2CCN(c3ccc(F)cc3)CC2)C1 (stereo not drawn)	i	-0.02
O=C(Cc1ccccc1[N+](=O)[O-])NCCCc1ccccc1	i	-0.04
COc1ccc(NC2CCCN(C(=O)CN3C(=O)c4ccccc4C3=O)C2)cc1OC (stereo not drawn)	i	-0.59
Cc1ccc(S(=O)(=O)N2CC=C(c3c(C)n(C)c4ccccc34)CC2)cc1	i	-0.05
O=c1cnnc(Nc2ccccc2)[nH]1	i	0.9
CCOC(=O)c1ccc(NC(=O)C2COc3ccccc3O2)cc1 (stereo not drawn)	i	-1.87
COc1ccc(-c2cc3c(nn2)-c2ccccc2C3=O)cc1	i	-1.62
O=C(Nc1ccc(Cl)cc1)C1=Cc2cc(Cl)ccc2OC1	i	1.32
Fc1ccccc1N1CCN(c2ncnc3nc[nH]c23)CC1	i	-0.08
Cc1ccc(CS(=O)Cc2ccc(C(=O)NCc3ccc(OC(C)C)cc3)o2)cc1 (stereo not drawn)	i	3.26
CCc1nc(Nc2ccccc2)c2oc3ccccc3c2n1	i	-1.39
N#C/C(=C(/O)COC(=O)CCc1ccc(S(=O)(=O)N2CCOCC2)cc1)c1nc2ccccc2[nH]1	i	1.11
C/C(=N\NC(=O)c1ccc(N/N=C(\C)c2ccncc2)cc1)c1ccncc1	i	0.82
COc1cc2c(cc1OC)-c1cc(NC3CC3)nc(=O)n1CC2	i	-2.11
Nc1ncnc(Nc2cc(Cl)cc(Cl)c2)c1[N+](=O)[O-]	i	-0.84
Cc1ccc(C(=O)Cn2ncsc2=N)cc1	i	-0.07
Clc1ccc(C2=NCCn3nc4ccccc4c32)cc1	i	0.19
CN(Cc1nc(-c2ccccn2)no1)S(=O)(=O)c1ccc(Cl)cc1	i	-0.41
Cc1nnc(NCc2ccccc2)c2ccccc12	i	-1.22
c1ccc2c(c1)CC(N1CCCCC1)c1ccccc1S2 (stereo not drawn)	i	1.44
CC(=O)N(c1cccc(C)c1)C1SC(=O)N(c2ccccc2)C1=O (stereo not drawn)	i	1.06
CCOC(=O)c1c(C)[nH]c(C)c1S(=O)(=O)N1CCOCC1	i	-0.55
CNc1nc(C)c(C#N)cc1C(C)=O	i	0.52
CC(OC(=O)c1ccc(O)cc1)C(=O)Nc1cc(C(F)(F)F)ccc1Cl (stereo not drawn)	i	-1.27
CC(=O)c1cccc(N(CC(=O)NCCc2ccccc2)C(=O)c2csnn2)c1	i	0.55
CC(=O)c1cc(C(=O)Nc2ccc(C(=O)O)cc2)oc1C	i	1.81
Cc1ccc(S(=O)(=O)N2CCN(c3ccccn3)CC2)cc1	i	-1.35
COc1ccc(NC(=O)Cn2nc(Cc3cccnc3)c3ccccc3c2=O)cc1OC	i	2.81
COc1cc(OC)cc(-n2nnnc2SCC(=O)Nc2ccc(C(C)=O)cc2)c1	i	-0.04
O=C(CSCc1ccc([N+](=O)[O-])cc1)NC1CCCCCC1	i	-2.03
CC(=O)c1cccc(NC(=O)Cn2c(=O)oc3cc(S(=O)(=O)N4CCCC4)ccc32)c1	i	-1.08
COc1ccc(CNC(=O)[C@H](CCSC)NC(=O)N2CCn3c2nc2ccccc23)cc1	i	-0.76
Cc1cc(C)c2cc(CN(Cc3ccco3)C(=S)NCC3CCCO3)c(=O)[nH]c2c1 (stereo not drawn)	i	0.38
CCCC[n+]1c(-c2ccc(Cl)cc2Cl)csc1Nc1ccccc1	i	0.05
Nn1c(SCc2ccccc2)nnc1-c1ccco1	i	-0.56
CCOC(=O)C1=C(C)N(CC)C(=S)NC1c1ccc(Cl)cc1 (stereo not drawn)	i	0.95
NC(=O)CC(NC(=O)Cc1ccc(Br)cc1)c1ccc(NC2CCCC2)c([N+](=O)[O-])c1 (stereo not drawn)	i	-0.73
COc1ccc(NC(=O)c2cccc(S(=O)(=O)N3CCOCC3)c2)cc1	i	0.41
COc1cc(OC)cc(OC(=O)C2CCN(S(=O)(=O)c3ccc(OC)c(OC)c3)CC2)c1	i	0.68
CCOC(=O)c1c(-c2ccc(C)o2)csc1NC(=O)CSc1nnnn1-c1ccccc1	i	-0.97
Cc1cc(C)n2nc(SCc3cccc(F)c3)nc2n1	i	0.32
COc1ccc(-c2cc(CN3C(=O)c4ccccc4C3=O)on2)cc1	i	0.96
CCc1ccc(NC(=O)COc2ccc(F)cc2C(=O)c2cnn(-c3ccccc3)c2)cc1	i	-0.72
O=C(Cn1ccc2cc(S(=O)(=O)N3CCCCC3)ccc21)NCc1ccccc1F	i	-1.43
Nc1nnc(CCCCCCCCCCc2nnc(N)s2)s1	i	0.05
O=C(CCC1CCN(Cc2ccccc2Cl)CC1)NC1CC1	i	1.25
CC1CCN(c2c(NCC3CCC(C(=O)Nc4ccccn4)CC3)c(=O)c2=O)CC1 (stereo not drawn)	i	1.37
C=CCSc1nc2ccccc2c2nc(-c3ccccc3)nn12	i	0.62
COc1ccc(/C=C2\SC(=S)N(CCC(=O)Nc3cccc(O)c3)C2=O)cc1	i	5.63
Cc1cc(C)nc(SCc2cn3cc(Cl)ccc3n2)n1	i	0.08
CCOC(=O)N1CCN(CC(O)COC2CC(C)CC(C)(C)C2)CC1 (stereo not drawn)	i	1.3

Next compounds:
SMILES	KCNQ2 inh	KCNQ2 inh baseline
CC(O)C(O)C(O)C(O)C1NCCS1 (stereo not drawn)	i	-2.31
CCNC(=O)NC(=O)CSc1nc2ccccc2n1CC(C)C	i	-0.79
O=[N+]([O-])c1ccc(N2CCN(c3ccc(Cl)nn3)CC2)c(Cl)c1	i	1.33
CCCCN(C(=O)NC(=O)Nc1cc(C)ccc1C)S(C)(=O)=O	i	0.24
CCn1c(SCC(=O)Nc2nc(C)c(C(=O)OC)s2)nnc1C(C)C	i	1.13
Cc1ccc(C)c(NC(=O)CCc2ccc(C)o2)c1	i	2.46
CCn1cc(S(=O)(=O)c2cccc(C)c2)c(=O)c2cc(F)c(N3CCN(C)CC3)cc21	i	0.68
O=C(CSc1nc(=O)n2ccccc2n1)Nc1ccc2c(c1)OCCO2	i	1.1
CC1CN(S(=O)(=O)c2cc(C(=O)N(CCc3ccccc3)Cc3ccccc3)ccc2Cl)CC(C)O1 (stereo not drawn)	-7.18*	-0.02*
NC(=S)N/N=C\c1ccccc1OCc1ccccc1	i	-0.31
CC(C)CC(=O)N1CCN(c2ccc([N+](=O)[O-])c(NCc3ccccc3)c2)CC1	i	0.44
O=C(C1=C(O)C(=O)N(CCCn2ccnc2)C1c1ccc(F)cc1)c1ccco1 (stereo not drawn)	i	0.12
COc1ccc(-n2c(Cc3cccn3C)nnc2SCC(=O)Nc2cc(Cl)ccc2OC)cc1	i	-2.2
COCC(=O)N1CCCC(N(C)CCc2ccc(OC)c(OC)c2)C1 (stereo not drawn)	i	0.34
CCn1c(SCC(=O)c2[nH]c(C)c(C(C)=O)c2C)nnc1-c1ccncc1	i	-0.28
O=[N+]([O-])c1ccc(C(=S)N2CCN(c3ccc(F)cc3)CC2)cc1	i	1.23
O=C(CN1C(=O)C2C3CCC(C3)C2C1=O)N1CCN(Cc2ccccc2)CC1 (stereo not drawn)	i	0.11
Cn1c2c(c(=O)n(C)c1=O)C(c1ccccc1Cl)C(C#N)=C(N)O2 (stereo not drawn)	i	0.38
COc1ccc2[nH]c(C(O)(Cc3cccnc3)Cc3cccnc3)cc2c1	i	1.79
O=C(C1=C[C@@H](C2CCCCC2)C[C@@H](OCCCCO)O1)N1CCOCC1	i	0.04
Cc1occc1-c1nnc(SCC(=O)N2CCCCC2)o1	i	-1.08
O=C1C(=Nc2cccc(Cl)c2)CC(c2ccc(Cl)cc2)N1c1cccc(Cl)c1 (stereo not drawn)	i	0.24
COc1ccc(N/C(C)=C2/C(=O)C(=O)N(CCO)C2c2ccc([N+](=O)[O-])cc2)cc1 (stereo not drawn)	i	1.82
CC1CCC(NC(=O)COC(=O)C2CC3CCCC(C2)C3=O)CC1 (stereo not drawn)	i	0.71
CC(=O)N1c2ccc(S(=O)(=O)NCCC(=O)N(C)Cc3ccccc3)cc2CC1C (stereo not drawn)	i	0.06
N/C(COc1ncn(-c2ccccc2)n1)=N\S(=O)(=O)c1ccc(Cl)cc1Cl	i	-0.05
O=C(CCCNC(=O)c1ccc(Cl)cc1)Nc1ccc(S(=O)(=O)Nc2ncccn2)cc1	i	-1.82
CCN1CCN(C(=O)c2ccc3c(=O)n(Cc4ccccc4OC)c(=S)[nH]c3c2)CC1	i	-2.1
CN1CCN(c2ccc(CNS(=O)(=O)Cc3ccc(Cl)cc3)cc2)CC1	i	0.13
CCc1cc(C(=O)Nc2ccc(S(=O)(=O)NC3=NCCCCC3)cc2)sc1C	i	-0.03
Fc1ccc(-c2ccc(-c3nn4c(-c5ccco5)nnc4s3)o2)cc1	i	0.72
O=C(Nc1ccccc1F)c1ccc(C(=O)c2ccccc2)cc1	i	-2.03
O=C(Nc1ccc(F)cc1)C1CCCN1S(=O)(=O)c1cccc2nsnc12 (stereo not drawn)	i	-0.04
COc1cccc(C(=O)N(c2ccc(C)cc2)C2C=CS(=O)(=O)C2)c1 (stereo not drawn)	i	0.04
CCC(C)(C(=O)NC1CCCC1)N(Cc1cccs1)C(=O)c1ccccn1 (stereo not drawn)	i	-1
Cc1ccc(NC(=O)CCNS(=O)(=O)c2cccc3nonc23)cc1	i	1.98
COc1ccc(C(C)=O)cc1CSc1nc2ccccc2o1	i	-0.27
CN(C[C@H](Cc1ccccc1)N(C[C@H](c1ccccc1)N(CCc1ccccc1)N=O)N=O)N=O	i	0.11
COc1cc(/C=C/C(=O)OCC(=O)Nc2ccccc2Cl)cc(OC)c1OC	i	-0.25
COCCCN1C(=O)c2ccc(C(=O)NCCc3ccccc3)cc2C1=O	i	-0.14
CC(Oc1ccc(Cl)cc1Cl)c1nc(-c2ccc(NC(=O)c3ccccn3)cc2)no1 (stereo not drawn)	i	0.04
OC1(c2ccc(OC(F)F)cc2)CSC(=Nc2cccnc2)N1C1CC1 (stereo not drawn)	i	-0.88
Cc1noc(-c2ccc(Cl)cc2)c1C(=O)O/N=C(\N)c1ccc(C(C)(C)C)cc1	i	0.98
CC(=O)Nc1ccc(NS(=O)(=O)c2ccc(OC(C)C(=O)N3CCOCC3)cc2)cc1 (stereo not drawn)	i	2.24
COc1ccc(Cl)cc1C(=O)O/N=C(\N)c1ccncc1	i	2

Given in markdown: part of the list above
| molecule | KCNQ2 inh | KCNQ2 inh baseline |
| --- | --- | --- |
| COc1cc(/C=C/C(=O)OCC(=O)Nc2ccccc2Cl)cc(OC)c1OC | i | -0.25 |
| COCCCN1C(=O)c2ccc(C(=O)NCCc3ccccc3)cc2C1=O | i | -0.14 |
| CC(Oc1ccc(Cl)cc1Cl)c1nc(-c2ccc(NC(=O)c3ccccn3)cc2)no1 (stereo not drawn) | i | 0.04 |
| OC1(c2ccc(OC(F)F)cc2)CSC(=Nc2cccnc2)N1C1CC1 (stereo not drawn) | i | -0.88 |

5 structures already listed, arranged by count of non-hydrogen atoms, smallest number first:
SMILES	KCNQ2 inh	KCNQ2 inh baseline
COc1ccc(C(C)=O)cc1CSc1nc2ccccc2o1	i	-0.27
Cc1ccc(NC(=O)CCNS(=O)(=O)c2cccc3nonc23)cc1	i	1.98
OC1(c2ccc(OC(F)F)cc2)CSC(=Nc2cccnc2)N1C1CC1 (stereo not drawn)	i	-0.88
O=C(Nc1ccc(F)cc1)C1CCCN1S(=O)(=O)c1cccc2nsnc12 (stereo not drawn)	i	-0.04
CN(C[C@H](Cc1ccccc1)N(C[C@H](c1ccccc1)N(CCc1ccccc1)N=O)N=O)N=O	i	0.11

Further compounds follow:
SMILES	KCNQ2 inh	KCNQ2 inh baseline
CSc1ccc(/C=N/N2CCN(c3ccccc3)CC2)cc1	i	-2.27
CC(=O)Nc1ccc(S(=O)(=O)N2CCC(C(N)=O)(N3CCCCC3)CC2)cc1	i	0.02
CCCCNC(=O)CCn1nc(-c2ccc(Cl)cc2)c2ccccc2c1=O	i	-0.02
CCOc1ccc(CCNC(=O)Cn2nc(C)c3c(C)n(-c4ccccc4)nc3c2=O)cc1	i	-0.07
COc1ccccc1Nc1nc(-c2sc(NC(=O)CC(C)C)nc2C)cs1	i	-0.8
Cc1cccc2c1N1C(=O)c3c(C(=O)O)cccc3C1CC2C (stereo not drawn)	i	0.13
Cc1ccc(C(=O)O/N=C(\N)c2ccccn2)c(C)c1	i	0.87
Cc1ccc2cc(/C=N/Nc3nc4ccccc4[nH]3)c(Cl)nc2c1	i	0.11
COC(=O)CCCc1nc2ccccc2s1	i	2.02
CC(=O)Nc1cc(C)nn1-c1nc(C)cc(C)n1	i	-1.14
O=C1c2ccccc2C(O)N1Cc1cccs1 (stereo not drawn)	i	0.7

Source: PubChem
